Screening results (PubChem BioAssay)
Six1-Eya2 blk: Six1/Eya2 interaction inhibition. Q15475+O00167. AlphaScreen GST-Six1/His-Eya2 binding, biochemical; hits give low values; control for the full effect not named in the record. activity change, % (no concentration beside the values). hit rate 0.56% among 360,000; in the data active = activity change below about -65%; inconclusive = about -30% to -65%; inactive = above about -30%; further: on the % scale 0 is the no-effect control and ±100 the full control effect; compound concentration not given in the record
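Compounds are tested against tagged Six1 and Eya2 proteins bridged by glutathione donor and nickel acceptor beads; after a one-hour incubation at 37 °C without light, AlphaScreen emission is recorded.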
D2 potentiator: positive allosteric modulators of human D2 dopamine receptor | P14416 | DiscoveRx D2 beta-arrestin cells, luminescence, 90 min; 100% = 57 uM dopamine signal | potentiation, % (no concentration beside the values) | hit rate 0.23% among 360,000 | AID 624464; active = potentiation of 50% or more; inconclusive = 30% to 50%; inactive = 30% or less;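 further: compound concentration not given in the record; tested on top of an EC20 dose of dopamine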
Target sequence (P14416 whole entry, looked up): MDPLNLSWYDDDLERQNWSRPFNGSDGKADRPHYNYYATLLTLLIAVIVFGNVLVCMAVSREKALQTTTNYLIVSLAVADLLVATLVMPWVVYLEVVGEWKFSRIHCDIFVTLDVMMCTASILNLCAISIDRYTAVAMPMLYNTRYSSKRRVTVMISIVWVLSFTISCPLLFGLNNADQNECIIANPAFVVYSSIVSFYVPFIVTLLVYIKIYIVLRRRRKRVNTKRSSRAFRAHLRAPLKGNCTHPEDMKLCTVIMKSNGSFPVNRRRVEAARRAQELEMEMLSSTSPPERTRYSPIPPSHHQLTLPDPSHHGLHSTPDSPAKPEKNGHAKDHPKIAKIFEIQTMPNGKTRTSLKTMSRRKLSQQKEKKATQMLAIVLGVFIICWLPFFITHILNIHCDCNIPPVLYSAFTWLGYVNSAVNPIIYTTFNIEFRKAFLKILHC
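PathHunter D2 cells, attached overnight at 37 deg C, received compound in DMSO plus dopamine at EC20 (50 nM final) for 90 min at 37 deg C. Beta-arrestin recruitment was read as luminescence after 1 h with detection reagent at ambient temperature.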
PINK1 expr mod: modulators of PINK1 expression; PINK1 immunofluorescence, high-content cytometry, 24 h; Potency, µM (doses to about 76.6 µM), without a hit: at the top dose activation (PINK1 increase), hits mostly activators; hit rate 0.2% among 410,000; AID 624263; active = well fitted activation curve with a large enough effect; inconclusive = small, poorly fitted or top-dose-only effect; inactive = flat fitted curve, though single readings scatter; cell line not stated here;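 further: potency means the concentration at half of the fitted maximal effect; % of control where 0% means no effect; nearly all actives have a fitted effect of over 65% in size; a mitochondrial uncoupler was the plate control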
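Cells are seeded, rested 12 hours, then given compound at five concentrations or DMSO for 24 hours. After fixation, blocking and antibody staining, PINK1 amount and mitochondrial localization are scored; CCCP serves as control.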
TRPML1 blocker: blocks the human TRPML1 channel; TRPML1-inducible cells, Ca2+ dye fluorescence, FDSS; hits give low values; inhibition of EC80 agonist-evoked calcium signal; activity change, negative = inhibition, % (no concentration beside the values); hit rate 0.02% among 390,000; in the data active means activity change below about -50%; inconclusive means about -30% to -50%; inactive means above about -30%;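 further: stimulus is agonist 54-4 at its EC80 concentration; on the % scale 0 is the no-effect control and ±100 the full control effect; compound concentration not given in the record; the text of the record puts the active cut at -80%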
Target sequence (Q9GZU1 whole entry, looked up): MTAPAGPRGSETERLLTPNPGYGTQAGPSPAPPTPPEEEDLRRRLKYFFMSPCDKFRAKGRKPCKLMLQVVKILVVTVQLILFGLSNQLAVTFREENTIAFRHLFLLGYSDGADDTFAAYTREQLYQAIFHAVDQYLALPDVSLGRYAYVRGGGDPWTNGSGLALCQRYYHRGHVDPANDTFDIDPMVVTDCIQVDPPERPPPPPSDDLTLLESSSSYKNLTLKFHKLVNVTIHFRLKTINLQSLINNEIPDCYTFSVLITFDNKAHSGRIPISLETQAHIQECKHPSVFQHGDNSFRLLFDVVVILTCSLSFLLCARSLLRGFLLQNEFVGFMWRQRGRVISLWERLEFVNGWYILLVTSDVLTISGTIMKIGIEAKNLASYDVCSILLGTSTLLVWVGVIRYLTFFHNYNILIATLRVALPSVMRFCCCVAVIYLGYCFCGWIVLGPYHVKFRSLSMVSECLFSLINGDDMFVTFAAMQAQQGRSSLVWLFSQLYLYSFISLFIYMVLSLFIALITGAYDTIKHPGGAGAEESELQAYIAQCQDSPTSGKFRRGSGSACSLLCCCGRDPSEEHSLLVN
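Calcium fluorescence in TRPML1-DL cells induced overnight with Tet: a 110 s read after compound pin addition, then a 110 s antagonist read after challenge with 54-4 at 4 uM final (EC80).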
TRPML1 agonist: activates the human TRPML1 channel; Q9GZU1; hit rate 0.12% among 410,000; AID 624414; activation, % (concentration not given with the values); TRPML1-expressing cells, Ca2+ dye fluorescence, FDSS; host cell line not named in the record; reference of the full effect not given here; in the data active = activation above about 50%; inconclusive = about 30% to 50%; inactive = below about 30%; further: 0% is about no effect; the text of the record puts the active cut at 80%
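Agonist activity was taken from a 110 s kinetic Ca2+ dye read on the FDSS after pinning compounds onto TRPML1-DL cells. The cells were seeded at 1,500/well with Tet inducer, incubated about 16 h, then dye-loaded at room temperature.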
D2 agonist: activates the human D2 dopamine receptor | hit rate 0.084% among 360,000 | DiscoveRx PathHunter D2 beta-arrestin, luminescence, 90 min; 100% = 57 uM dopamine signal | activation, % (no concentration beside the values) | AID 624465 | P14416; in the data active = activation above about 40%; inconclusive = about 15% to 40%; inactive = below about 15%; further: compound concentration not given in the record; the text of the record calls up to 30% inactive
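DiscoveRx PathHunter D2 beta-arrestin cells (2,100/well) attached overnight, then compound-stimulated 90 min at 37 C in HBSS/10 mM HEPES/0.1% Tween-20 buffer; beta-galactosidase complementation read by luminescence after 1 h at ambient temperature. Dopamine 57 uM final (EC100) as control.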
* marks the source's active call; other numbers are inactive results; ? = inconclusive; . = not tested or not shown; & = joins results of further samples; [ ] = another dose, or the depositor's remark.

Start of the listing, in advance (2 entries):
SMILES | Six1-Eya2 blk | D2 potentiator | PINK1 expr mod | TRPML1 blocker | TRPML1 agonist | D2 agonist
Cc1ccc(NC(=S)NCCc2ccc(Cl)cc2)c(C)c1 | -22 | -29 | 23% | -19 | 1.1 | -5.4
CSc1nsc(/C=C/Nc2ccc(C(=O)O)cc2)c1C#N | -9 | 0 | 2.2% | 3 | 0.9 | -4.3

Main list, from the start:
SMILES | Six1-Eya2 blk | D2 potentiator | PINK1 expr mod | TRPML1 blocker | TRPML1 agonist | D2 agonist
Cc1ccc(NC(=S)NCCc2ccc(Cl)cc2)c(C)c1 | -22 | -29 | 23% | -19 | 1.1 | -5.4
CSc1nsc(/C=C/Nc2ccc(C(=O)O)cc2)c1C#N | -9 | 0 | 2.2% | 3 | 0.9 | -4.3
CCN(CC)S(=O)(=O)c1cccc(C(=O)Nc2cc(C)cc(C)c2)c1 | 7 | -4 | -0.1% | 12 | 0.5 | -1.9
CCOc1ccc(C(=O)Nc2cc(C)c3c(=O)oc4ccccc4c3n2)cc1 | 2 | -2 | 0.9% | 16 | -0.1 | -1.9
COC1C/C(=N\O)C2OC(c3ccccc3)OCC2O1 (configuration not stated) | 33 | 0 | 0.1% | -3 | 1.3 | -0.4
Cc1cc(C)cc(NC(=O)NCc2ccccn2)c1 | 2 | -6 | 0.9% | -2 | 0.4 | 0.7
Cc1ccc(-c2csc(NC(=O)CSC3=NCCS3)n2)cc1 | -5 | -38 | . | 8 | -0.1 | -2.9
COC(=O)C1=C(C(=O)OC)[C@@H]2N(C)c3ccc(OC)cc3[C@@]23C[C@@H](C(=O)OC)N(S(=O)(=O)c2ccc([N+](=O)[O-])cc2)C3=N1 | -29 | 3 | -0.6% | -8 | -0.4 | ?
O=C(Nc1ccccc1C(F)(F)F)N1CCCC(O)C1 (configuration not stated) | 0 | 14 | -1.0% | -3 | -0.7 | 0.1
CCOC(=O)Cn1nc(C)c(NC(=O)COc2ccccc2)c1C | 1 | -3 | -0.1%&2.0% | -11&4 | 3.0&1.2 | -1.9
COc1ccc(N2CC(C(=O)NNC(=O)c3ccc(Br)cc3)CC2=O)c(OC)c1 (configuration not stated) | 5 | -10 | -0.8% | 8 | 0.1 | 0.3
COc1ccc(CC(=O)NCCS(=O)(=O)N2CCN(c3ccccc3F)CC2)cc1OC | . | . | -0.3% | 16 | 1.4 | .
CCOC(=O)c1nnc(-c2ccccc2)nc1Sc1c(Cl)cccc1Cl | 0 | -38 | -1.9% | 10 | 2.1 | -5.8
CCOc1ccc(NC(=O)CSc2n[nH]c(N)n2)c([N+](=O)[O-])c1 | 5 | -4 | -0.1% | -18 | 0.0 | -6.1
O=C(OCc1cccc(Cl)c1)c1cc([N+](=O)[O-])ccc1N1CCOCC1 | -15 | -16 | 5.9% | 30 | 2.9 | -4.5
Cc1cc(C)c2oc(C(=O)NC3CCS(=O)(=O)C3)cc(=O)c2c1 (configuration not stated) | 4 | -3 | 1.5% | -6 | -0.6 | -4.5
Cc1ccc(C(=O)Oc2ccccc2N2C(=O)C3CCC(C)CC3C2=O)cc1 (configuration not stated) | 6 | 17 | . | 18 | -0.3 | -1.6
CC12CCC(O)CC1=CCC1C2CCC2(C)c3[nH]ncc3CC12 (configuration not stated) | 7 | 9 | -3.6% | 19 | 2.5 | 3.7
CCOC(=O)C(NC(=O)Nc1ccc(Cl)cn1)(Oc1ccccc1)C(F)(F)F (configuration not stated) | -2 | -10 | 1.5% | 26 | -0.5 | -9.4
COc1ccc(CN2C(=O)C(CC(=O)NCCc3ccccn3)CC(C(=O)N3CCOCC3)=C2C)cc1 (configuration not stated) | 2 | -6 | 0.3% | 9 | 0.4 | -3.3

Record cards, as listed above:
`CCOC(=O)C(NC(=O)Nc1ccc(Cl)cn1)(Oc1ccccc1)C(F)(F)F` (configuration not stated) is listed with Six1-Eya2 blk = -2; D2 potentiator = -10; PINK1 expr mod = 1.5%; TRPML1 blocker = 26; TRPML1 agonist = -0.5; D2 agonist = -9.4
`CC12CCC(O)CC1=CCC1C2CCC2(C)c3[nH]ncc3CC12` (configuration not stated) is listed with Six1-Eya2 blk = 7; D2 potentiator = 9; PINK1 expr mod = -3.6%; TRPML1 blocker = 19; TRPML1 agonist = 2.5; D2 agonist = 3.7

The list goes on:
SMILES | Six1-Eya2 blk | D2 potentiator | PINK1 expr mod | TRPML1 blocker | TRPML1 agonist | D2 agonist
CCCC(CCC)C(=O)Nc1cccc(-c2cn3c(n2)SCC3)c1 | -4 | -7 | -1.8% | -15 | 2.6 | 3.4
N#CC1=C(N)Oc2nc(-c3ccccc3)[nH]c2C1c1cccnc1 (configuration not stated) | 2 | -5 | -0.2% | 16 | -0.3 | -2.0
Cc1ccc(-c2cc(C(=O)NC3=NCCS3)c3ccccc3n2)cc1C | 7 | -20 | 0.8% | 8 | 0.0 | -3.9
Cc1ccc(NC(=O)CSC(C)c2nc3ccccc3c(=O)[nH]2)cc1 (configuration not stated) | 11 | -11 | -0.6% | 45 | 0.0 | -5.8
O=C(NCC(c1cccnc1)N1CCOCC1)c1ccco1 (configuration not stated) | 4 | 2 | -2.3% | 13 | -0.4 | -1.7
COc1cc2nc(CN(C)Cc3ccc(F)cc3)[nH]c(=O)c2cc1OC | 7 | -7 | -0.1% | 8 | -0.1 | -3.7
COc1cc(/C=N/NS(=O)(=O)c2ccc(C)c([N+](=O)[O-])c2)ccc1O | -2 | 1 | -0.7% | -1 | 0.3 | -5.6
O=C(O)CC(NC(=O)c1ccco1)c1ccco1 (configuration not stated) | -3 | 5 | 0.0% | 25 | -0.7 | -2.7
Cc1ccc(-c2csc3nc(C)n(N)c(=O)c23)o1 | -7 | -15 | -11%[38.3 µM] | 7 | -0.5 | 0.7
CN(C)CCOC(=O)C1(c2ccccc2)CCOCC1 | 8&1 | -25&-13 | 0.0%&-0.4% | 1&4 | -0.2&-0.1 | -2.6&-4.5
Cc1ccccc1NC(=O)CSc1nnc2ccc(-c3ccncc3)nn12 | -19 | -6 | 0.5% | 14 | -0.8 | -1.3
COc1ccccc1NC(=O)CCn1nc(-c2ccccc2)c2ccccc2c1=O | . | . | 17% | -1 | 4.7 | .
CC(C)NC(=O)CSc1nc2ccccc2n1CC(=O)N(C(C)C)C(C)C | 18 | -6 | 0.2% | -1 | -0.5 | -6.4
CC(=O)c1cccc(NC(=O)CCCN(C)S(=O)(=O)c2ccc(F)cc2)c1 | -12 | -7 | 3.6% | -2 | 0.0 | -1.3
COc1cccc(CNc2nc3cc(-c4ccccc4C)sc3c(=O)n2C)c1 | 1 | -2 | 10% | . | -0.4 | -6.8
Cc1cc(C(=O)C(=O)NC(C)C)c(C)n1-c1ccc([N+](=O)[O-])cc1 | -1 | -6 | 3.9%[38.3 µM] | 3 | -0.7 | -1.3
COc1ccc(CCn2c(=O)c3cccnc3n(CC(=O)Nc3c(C)cc(C)cc3C)c2=O)cc1OC | . | . | 0.5% | -8 | -1.0 | .
CCN1c2ccccc2-n2cccc2C12CCN(C(=O)Nc1ccccc1C(F)(F)F)CC2 | . | . | 0.7% | -6 | 0.4 | .
CC(=O)Nc1ccc(S(=O)(=O)N2CCC(C(=O)NC3CCCC3)CC2)cc1 | 5 | -2 | 2.7% | 4 | -0.2 | 1.1
CCOc1ccc(N(Cc2cc3ccc(C)cc3[nH]c2=O)S(C)(=O)=O)cc1 | 2 | -5 | 0.0%[38.3 µM] | 0 | -0.3 | -0.2
O=C(COc1cccc2cccnc12)N/N=C1\SCC(=O)N1Cc1ccccc1 | 6 | -14 | 0.3% | 2 | -1.0 | -3.1
O=C(c1cccc(C(F)(F)F)c1)C1CCCN(C(=O)CCCN2CCCC2=O)C1 (configuration not stated) | 5 | -6 | 1.2% | -13 | -0.1 | 0.1
CC(=O)Nc1ccc(SCC(=O)Nc2ccc3c(c2)OCCO3)cc1 | 4 | -1 | 0.1% | 3 | -0.8 | -5.4
O=C(CSc1cc(Cl)ccc1Cl)NCCCn1ccnc1 | -2 | -8 | -0.3% | -1 | -0.6 | -3.1
C=CCn1c(SCC(=C)C)nc2c1c(=O)[nH]c(=O)n2C | 15 | -5 | -0.8% | -5 | -0.2 | -2.2
CCOC(=O)Cc1csc(SC(C)C(=O)Nc2ccc(NC(C)=O)cc2)n1 (configuration not stated) | -2 | 10 | -1.8% | -5 | -0.7 | -0.7
O=C(CCc1ccncc1)NC1CCCc2c1cnn2-c1ccc(F)cc1F (configuration not stated) | 1 | -9 | 0.7% | 4 | -1.1 | 1.7
COc1cccc(CNC(=O)C2CCN(S(=O)(=O)c3c(C)nn(C)c3C)CC2)c1 | 4 | -2 | 1.7% | -7 | -0.4 | 2.9
O=C(Nc1ccccc1)N1CCc2ccccc21 | 0 | -7 | -5.0% | 0 | 0.1 | -2.9
CC(=O)C1CCC2C3CC(O)C4=CC(=O)CCC4(C)C3C(=O)CC12C (configuration not stated) | 6 | -5 | 1.4% | -21 | 1.5 | -0.9
CC(=O)Nc1c(Cl)cc2c(c1Cl)C(=O)c1ccccc1-2 | -7 | -7 | 1.7% | 12 | 0.1 | -0.9
O=C(CSc1nc(=O)n(CCN2CCOCC2)c2c1CCCC2)Nc1ccccc1Cl | -2 | -6 | -0.2% | -2 | -0.6 | -1.7
COc1ccccc1NC(=O)c1c(NC(=O)c2ccccc2F)sc2c1CCC2 | . | . | 1.2% | -1 | -0.8 | .
O=[N+]([O-])c1ccc(OCCn2cnc3ccccc32)cc1 | -2 | -18 | 0.3% | 4 | -0.7 | -4.2
CCOC(=O)N1CCC(NC(=O)Cc2ccccc2)CC1 | -1 | -16 | 1.6% | -3 | -0.8 | -5.3
CCn1cc(C(=O)Nc2cccc(Cl)c2)c2cc(OC)c(OC)cc2c1=O | . | . | 9.3% | -7 | -0.5 | .
CC(C)=CCCC(C)CN1CCC(O)CC1 (configuration not stated) | 2 | -9 | 0.6%[38.3 µM] | 20 | 0.1 | -4.6
COC(=O)c1ccc(NC(=S)N2CCN(Cc3ccc(Cl)cc3)CC2)cc1 | -12 | -4 | 6.3%[38.3 µM] | 10 | 0.4 | 0.2
Cc1ccc(N=Cc2sc(O)c3ccccc23)c(C)c1 | 3 | ? | ? | 21 | 6.4 | -6.8
O=C(NCCc1ccccc1)C(=O)NCC(c1cccs1)S(=O)(=O)c1cccs1 (configuration not stated) | . | . | 0.8% | 20 | 2.4 | .
CS(=O)(=O)N(CC(=O)NCc1ccccc1Cl)C1CCCCC1 | 1 | -24 | -0.7% | -8 | 0.3 | -1.6
COc1cccc(CNC(=O)CCC(=O)N2CCOCC2)c1 | 4 | -6 | -1.3% | -16 | 0.3 | -5.0
CCOc1ccc(-n2nc(CO)c(C(=O)NCc3ccc(Cl)cc3)n2)cc1 | . | . | 4.3% | 71 | 5.0 | .
O=C(NCCc1ccccc1)c1ccccc1NS(=O)(=O)N1CCCC1 | 2 | -11 | -2.7%[38.3 µM] | 14 | 1.2 | -1.5
